D2 agonist: Beta-Arrestin HTS for Positive Allosteric Modulators of the Human D2 Dopamine Receptor: Agonists. D(2) dopamine receptor (Homo sapiens), P14416. DiscoveRx PathHunter D2 beta-arrestin, luminescence, 90 min; 100% = 57 uM dopamine signal. activation, % (test concentration not listed). actives 0.084% (n = 360,000). AID 624465, 2012; in the data active = activation above about 40%; inconclusive = about 15% to 40%; inactive = below about 15%; note: compound concentration not given in the record; the text of the record calls up to 30% inactive
Target sequence (P14416 whole entry, looked up): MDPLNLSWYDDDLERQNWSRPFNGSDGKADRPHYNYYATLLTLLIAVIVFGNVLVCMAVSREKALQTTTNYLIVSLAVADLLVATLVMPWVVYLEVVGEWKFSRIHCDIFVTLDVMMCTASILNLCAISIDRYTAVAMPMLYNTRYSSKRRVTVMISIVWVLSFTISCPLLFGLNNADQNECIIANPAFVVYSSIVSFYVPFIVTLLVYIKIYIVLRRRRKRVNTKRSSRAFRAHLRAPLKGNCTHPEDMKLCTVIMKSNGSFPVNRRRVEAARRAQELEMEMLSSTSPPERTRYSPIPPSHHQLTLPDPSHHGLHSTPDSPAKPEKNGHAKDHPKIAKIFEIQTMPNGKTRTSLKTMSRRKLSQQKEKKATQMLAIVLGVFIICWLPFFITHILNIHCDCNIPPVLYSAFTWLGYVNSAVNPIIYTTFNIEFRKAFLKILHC
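Agonist mode: compounds alone added to overnight-plated D2 PathHunter cells for 90 min at 37 C, with 57 uM final dopamine (EC100) defining full response. Beta-arrestin recruitment detected by chemiluminescent reagent, read after 1 h at ambient temperature.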
CtBP-E1A blk: qHTS Assay for Inhibitors of the CtBP/E1A Interaction | CtBP / adenovirus E1A interaction (AlphaScreen) | AlphaScreen GST-E1A/His-CtBP binding, 1536-well; stronger effect = lower value; control for the full effect not named in the record | activity change, % (test concentration not listed) | actives 0.49% (n = 340,000) | AID 651724, 2012; in the data active means activity change below about -65%; inconclusive means about -30% to -65%; inactive means above about -30%; note: % is set by controls: 0 for no effect and ±100 for the full control effect; compound concentration not given in the record
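In 5 uL wells, 23 nL compound meets equimolar GST-E1A and His-CtBP (5X stock 125 nM each) for 2 h, 37 °C. Beads (5X, 50 ug/mL) then 1 h, 37 °C, dark.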
D2 PAM: Beta-Arrestin HTS for Positive Allosteric Modulators of the Human D2 Dopamine Receptor: Potentiators; potentiation, % (test concentration not listed); DiscoveRx D2 beta-arrestin cells, luminescence, 90 min; 100% = 57 uM dopamine signal; actives 0.23% (n = 360,000); D(2) dopamine receptor (Homo sapiens), P14416; active = potentiation of 50% or more; inconclusive = 30% to 50%; inactive = 30% or less;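 note: compound concentration not given in the record; tested on top of an EC20 dose of dopamine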
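D2 cells co-treated with compound plus 50 nM dopamine (EC20) for 90 min at 37 deg C to detect potentiation. Beta-arrestin recruitment was read as enzyme-fragment luminescence after 1 h at ambient temperature. Full response was set by 57 uM dopamine.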
Six1-Eya2 blk: qHTS Assay for Inhibitors of the Six1/Eya2 Interaction; AlphaScreen GST-Six1/His-Eya2 binding, biochemical; stronger effect = lower value; control for the full effect not named in the record; activity change, % (no concentration beside the values); actives 0.56% (n = 360,000); in the data active = activity change below about -65%; inconclusive = about -30% to -65%; inactive = above about -30%; note: % is set by controls: 0 for no effect and ±100 for the full control effect; compound concentration not given in the record
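Homogeneous AlphaScreen proximity assay pairing GST-Six1 with His-tagged Eya2 (added as 5X mix: 250 nM and 500 nM) in 50 mM Tris pH 8.0, 300 mM NaCl, 1 mM TCEP. Glutathione donor and nickel acceptor beads; 1 h, 37 °C, dark.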
PINK1 expr mod: A Quantitative High throughput Screen to Identify Chemical Modulators of PINK1 Expression; Potency, µM (titrated, usually from 76.6 µM), inactives show at the highest dose activation (PINK1 increase), usual class: activators; PINK1 immunofluorescence, high-content cytometry, 24 h; AID 624263, 2012; actives 0.2% (n = 410,000); active = well fitted activation curve with a large enough effect; inconclusive = small, poorly fitted or top-dose-only effect; inactive = flat fitted curve, though single readings scatter; cell line not stated here;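 note: potency is the fitted concentration of half-maximal effect; % of control where 0% means no effect; nearly all actives have a fitted effect of over 65% in size; a mitochondrial uncoupler was the plate control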
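Cells are seeded, rested 12 hours, then given compound at five concentrations or DMSO for 24 hours. After fixation, blocking and antibody staining, PINK1 amount and mitochondrial localization are scored; CCCP serves as control.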
Sfp PPTase inh: qHTS Assay for Inhibitors of Bacillus subtilis Sfp phosphopantetheinyl transferase (PPTase). 4'-phosphopantetheinyl transferase ffp (Bacillus subtilis), Q9F4F7. Biochemical Sfp PPTase activity, qHTS. Potency, µM, without a hit: max response, negative = inhibition, hits mostly inhibitors. actives 3.5% (n = 310,000). AID 1490, 2009; active = well fitted inhibition curve with a large enough effect; inconclusive = small, poorly fitted or top-dose-only effect, or another doubt; inactive = no such curve, though single readings can be large or run the other way;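 note: the enzyme is Sfp with the accession as filed and its product quenches rhodamine fluorescence; potency is the fitted concentration of half-maximal effect; 0% = enzyme reaction without inhibitor and -100% = no enzyme wells; top concentration of the series not given in the record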
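Step 1, compound plus 15 nM Sfp-PPTase, 15 min, room temperature. Step 2, add rhodamine-CoA (5 uM) and BHQ-2-YbbR (12.5 uM). Step 3, read 525/598 nm fluorescence at 0 and 30 min.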
TRPV1 potentiator: HTS Assay for Compounds that Act as Potentiators of the Vanilloid Receptor 1; Transient receptor potential cation channel subfamily V member 1 (Homo sapiens), Q8NER1; potentiation, % at 8.33 µM; TRPV1-expressing cells, Fluo-8 calcium influx, capsaicin EC20 potentiation; host cell line not named in the record; control for the full effect not named in the record; AID 540277, 2011; actives 0.02% (n = 320,000); active means potentiation above 80%; inconclusive means 30% to 80%; inactive means below 30%; note: 0% is about no effect
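TRPV1-expressing cells were cultured overnight at 35.5C and loaded with Fluo-8 calcium dye for 40 to 90 min at room temperature. After a 10 s baseline, compound was added and calcium influx was read kinetically for 3 min (ex 480/em 520 nm).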
An asterisk follows results filed as active; ? = inconclusive; / = no result given; & = joins results of further samples; [ ] = dose if it differs, or a comment. Random draw from the library; any-hit rate near 3.7%.

molecule	D2 agonist	CtBP-E1A blk	D2 PAM	Six1-Eya2 blk	PINK1 expr mod	Sfp PPTase inh	TRPV1 potentiator
Cc1ccc2[nH]c(=O)c(CN3CCCCC3)c(-c3ccccc3)c2c1	2.4	-0.6	0.0	-1.4	2.0%	-7.2%	0.6
Nc1nc(-c2ccc(Cl)cc2)cc(C(F)(F)F)n1	-2.5	10.7	-9.7	2.3	-0.5%[38.3 µM]	11.3%	5.7
Nc1cccc(Oc2ccc3c(c2)C(=O)N(CC2CCCO2)C3=O)c1 (stereo not given)	-4.8	/	-16.1	3.9	1.4%	2.2%	-17.0
COc1ccccc1OCC(=O)Nc1ccc2c(c1)OCCO2	-2.6	1.6	-4.2	-5.4	-0.4%	8.2%	4.0
CN(CC(=O)Nc1ccccc1Br)C(=O)c1sccc1-c1ccccc1	-3.3	/	-15.4	7.8	1.5%	/	-17.3
CCCCOC(=O)c1ccc(NC(=O)CSCc2n[nH]c(=O)[nH]2)cc1	-2.0	7.9	14.8	4.4	0.6%	6.3%	-2.3
COc1ccc(CN=C(C)c2c(C(F)(F)F)[nH]n(-c3nc4ccccc4s3)c2=O)cc1	-1.7	-3.5	-1.6	6.2	7.7%	8.9%	-2.9
C=C(C)C(=O)Nc1cccc(C2=NOC3(C2)C[C@@H](C(N)=O)N(C(=O)CCCCC)C3)c1 (stereo not given in full)	-4.5	5.3	0.0	-27.8	-0.5%	11.4%	14.5

The list goes on:
molecule	D2 agonist	CtBP-E1A blk	D2 PAM	Six1-Eya2 blk	PINK1 expr mod	Sfp PPTase inh	TRPV1 potentiator
Cc1ccsc1C(=O)N1CCCC(CCC(=O)N2CCN(c3ccccn3)CC2)C1 (stereo not given)	-4.2	-4.8	-1.6	4.8	2.0%	26.3%	0.0
OCCN(CC(O)COc1ccccc1)CC(O)Cn1ccc2ccccc21 (stereo not given)	-1.7	/	-5.0	-0.7	-0.7%	3.8%	-3.3
CCN1C(=NCCOC)N[C@@H](CCc2ccccc2)[C@H](C(=O)OC)[C@H]1C	-1.6	4.9	-6.7	8.1	0.6%	19.0%&1.7%	20.3&11.5
Cc1nn(CC(=O)NCCc2ccccc2)c(=O)c2ccccc12	-2.4	-0.1	-20.8	-1.1	1.3%	12.4%	12.3
CCOc1cc(C(=O)OC(C)C(=O)Nc2ncc(Cl)cc2Cl)ccc1OCC(=O)N1CCOCC1 (stereo not given)	-4.0	/	-9.9	17.7	7.4%	10.9%	22.0
CCCCC(=O)NCCc1ccc(S(N)(=O)=O)cc1	-1.6	7.0	-14.4	-0.7	2.1%	10.4%	2.0
COc1cccc(NC(=O)CN(C)C(=O)c2cccc(S(=O)(=O)N3CC4(C)CC3CC(C)(C)C4)c2)c1 (stereo not given)	-3.8	/	-7.1	6.2	-0.8%	/	/
Cc1ccc(CNS(=O)(=O)c2ccc3c(c2)NC(=O)C(C)S3)cc1 (stereo not given)	-3.5	1.4	-1.0	-1.0	0.2%	14.2%	26.5

Going on with the list:
molecule	D2 agonist	CtBP-E1A blk	D2 PAM	Six1-Eya2 blk	PINK1 expr mod	Sfp PPTase inh	TRPV1 potentiator
COc1ccc(CCNC(=O)COC(=O)Cn2cnc3ccccc3c2=O)cc1	-3.4	8.1	-0.3	2.0	2.7%	21.9%	-4.7
Cc1cc(C)cc(NC(=S)N(CCN(C)C)C(C)c2cccnc2)c1 (stereo not given)	-0.9	5.4	-4.0	0.3	-0.6%	19.4%	-0.2
Cc1cc([N+](=O)[O-])nn1Cc1noc(C(=O)NCc2ccc3c(c2)OCO3)n1	3.1	1.4	-1.9	-14.3	2.5%	10.0%	15.0
Cc1cccn2c(=O)c3cc(C(=O)NCC4CCCO4)c(=N)n(Cc4ccc(F)cc4)c3nc12 (stereo not given)	-3.6	7.2	-14.8	0.7	1.0%	-4.0%	8.7
O=S(=O)(NC1c2cccc3cccc(c23)C1Sc1ncccn1)c1ccccc1 (stereo not given)	0.7	4.4	-4.7	-5.0	0.7%	16.3%	-7.8
CCN(CC(=O)Nc1ccccc1C(F)(F)F)C(=O)C1CCN(C(=O)Nc2ccccc2)CC1	5.0	-6.5	-2.3	0.1	1.3%	/	1.3
COc1cccc(NC(=O)CSc2nc(C3CC3)nc3ccccc23)c1	-1.6	6.1	-0.4	1.8	0.7%	-9.6%	-0.4
CC(C(=O)NCC1CCCO1)n1cc([N+](=O)[O-])cn1 (stereo not given)	-1.5	5.8	-7.7	6.1	1.2%	13.0%	1.7

Other results
molecule	D2 agonist	CtBP-E1A blk	D2 PAM	Six1-Eya2 blk	PINK1 expr mod	Sfp PPTase inh	TRPV1 potentiator
COc1ccc2c(N)c(C(=O)NN)[nH]c2c1	5.1	9.8	1.6	-6.8	7.3%	-0.2%	?
Cc1ccc(S(=O)(=O)Cc2ccc(C(=O)N3CCc4ccccc4C3)o2)cc1	0.7	-1.1	-9.8	-9.8	0.5%	-2.0%	-8.1
O=C(NC1CCCCC1)c1ccccc1NC(=O)C1CC1	-1.9	0.4	16.6	7.4	-5.8%[38.3 µM]	7.4%	13.6
COc1ccc(-c2nnc3sc(CCN4C(=O)c5ccccc5C4=O)nn23)cc1	-4.0	-10.2	-5.8	-13.5	-1.8%	-11.5%	-9.2
COc1ccc(-n2cnc3cc(NC(=O)c4ccco4)ccc32)cc1	0.6	-2.7	5.2	-6.9	-7.9%[38.3 µM]	18.7%	0.2
O=C(Nc1nnc(-c2ccco2)o1)c1ccc(S(=O)(=O)N2CCCC2)cc1	-2.9	-13.9	-4.6	-4.4	1.3%	16.1%	-16.0
CCC(C(=O)Nc1ccccn1)c1ccccc1 (stereo not given)	1.9	11.4	-10.0	0.8	2.9%	/	/
COc1cc(C)c(N(C(C)=O)c2ccccc2)c(C)c1	-1.4	6.4	-2.5	4.2	-0.3%	1.9%	-3.9

Next part.
molecule	D2 agonist	CtBP-E1A blk	D2 PAM	Six1-Eya2 blk	PINK1 expr mod	Sfp PPTase inh	TRPV1 potentiator
O=[N+]([O-])c1ccc(NC(=S)NCc2ccc(F)cc2)cc1	3.7	-18.3	-10.6	-7.6	?	-9.4%	-1.7
CC(c1ccccc1)c1nnc(NC(=O)Nc2ccccc2)s1 (stereo not given)	1.6	0.0	4.5	-14.9	?	6.6%	8.5
CCOC(=O)C(C#N)c1ccccn1 (stereo not given)	2.4	2.1	2.4	1.6	-3.9%[38.3 µM]	-4.1%	-20.3
O=C(COC(=O)c1ccco1)NCc1ccc(F)cc1	0.9	2.2	-5.4	2.2	4.0%	21.7%	2.1
COc1ccc(-n2c3c(cc(C(=O)Nc4cccc(C)n4)c2=O)C(=O)CC(C)(C)C3)cc1	-2.0	-1.8	-5.1	2.6	3.9%	11.9%	4.5
C/C(CC(O)(/C=N/O)c1ccccc1)=N\O (stereo not given)	0.0	1.0	-2.7	-3.1	-0.5%	2.1%	-22.3
CCc1nnc(NC(=O)COc2ccc(N(C)S(=O)(=O)c3ccc(C)cc3)cc2)s1	-11.8	8.3	-12.9	-0.1	0.6%	-3.9%	-5.8
Cc1nc2ccccc2c(=O)n1NCc1cc(Br)cs1	3.9	-6.5	-1.2	-2.6	2.8%[38.3 µM]	1.1%	0.7

More results:
molecule	D2 agonist	CtBP-E1A blk	D2 PAM	Six1-Eya2 blk	PINK1 expr mod	Sfp PPTase inh	TRPV1 potentiator
Cn1c2ccccc2c(=O)c2ccc(C#Cc3ccccn3)cc21	2.0	-4.2	-4.1	-4.3	24.7%	-21.0%	3.2
COc1ccc(CCC(=O)Nc2ccc(S(=O)(=O)N3CCCC3)cc2)cc1OC	-4.1	1.7	-1.2	-1.6	1.9%	/	27.3
CN(C)c1ccc(NC(=O)CN2C(=O)c3ccccc3C2=O)cc1	-3.0	-2.0	-16.4	-18.1	-1.1%	-0.8%	-1.2
COc1ccc(C)cc1-n1nnnc1SCC(=O)Nc1cc(C)on1	-2.2	6.3	2.1	-0.2	3.2%[38.3 µM]	13.4%	-6.0
Cc1nccn1CC(=O)N/N=C/c1cccc(O)c1	-1.5	-4.9	-24.0	-16.1	-0.6%	5.7%	-0.9
CCc1ccc(C(=O)COC(=O)CCc2nc3ccccc3c(=O)[nH]2)cc1	-1.1	-0.5	-6.9	1.7	-0.7%	24.2%	4.2
COc1ccc(-n2cnc3sc4c(c3c2=O)CCCC4)cc1	3.6	0.5	-2.7	-5.0	1.1%	4.1%	-13.3
C[C@@H]1ON(C)[C@H]2C[C@H]3c4cc(N5CCOCC5)ccc4CCN3C(=O)[C@@H]12	-2.5	-2.4	-7.0	5.7	1.8%	/	/

Next records:
molecule	D2 agonist	CtBP-E1A blk	D2 PAM	Six1-Eya2 blk	PINK1 expr mod	Sfp PPTase inh	TRPV1 potentiator
CC(O)(c1ccc(F)c(F)c1)c1nc(-c2ccc(S(C)(=O)=O)cc2)cs1 (stereo not given)	5.3	-11.4	-1.3	14.4	-1.1%	/	/
Cc1c(C(=O)NCCSCc2ccc(Cl)cc2Cl)cccc1[N+](=O)[O-]	-1.6	-3.0	5.8	-9.9	0.4%	-5.2%	-25.8
Cc1ccccc1/C=C/c1nc2ccccc2c(=O)[nH]1	1.9	4.0	-9.1	6.0	10.1%	-9.9%	/
COc1ccc(C2(c3ccc(OC)cc3)NC(=O)N(CC(=O)NC3CCCC3)C2=O)cc1	5.7	-0.5	7.9	-0.5	-2.0%	/	3.5
CCC(CC)c1nnc(NC(=O)C2CCCO2)s1 (stereo not given)	-0.2	-2.3	-13.9	-1.6	2.4%	-24.6%	-3.2
O=C1NC(c2ccccc2Cl)=N/C1=C/c1ccco1	-5.0	-4.6	-8.0	-7.7	3.9%	-15.9%	/
CCCC(=O)NCc1ccc2c(c1)cc(C)n2C	-2.8	-0.2	-7.5	-4.0	-2.1%	?	-7.7
CO/N=C(/CS(=O)(=O)Cc1ccccc1Cl)c1ccc(Cl)cc1Cl	-4.9	16.4	-15.9	7.3	0.4%[38.3 µM]	7.1%	/
COC(=O)c1ccc(CN(C)S(=O)(=O)c2cccs2)cc1	-0.3	0.1	-4.0	11.3	2.6%	4.7%	17.6

High-throughput results from PubChem BioAssay.
